Screening data: PubChem, several laboratories
Beta cell apopt – beta cell apoptosis inhibition | INS-1E cytokine-induced death, ATP luminescence, 48 h; percent of positive-control rescue, neutral wells zero | protection from apoptosis, % (concentration not given with the values) | hit rate 0.8% among 300,000;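 active = all replicates at 75% or more, or half of them and the mean; inconclusive = half reach 75% but not the mean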;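 note: 0% = cytokine-treated negative control wells and 100% = positive control rescue; higher means more ATP so stronger rescue from cytokine killing; wells of about 40 µL received 100 nL stock; the first replicate is given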
ALR H2O2 inh – inhibitors of human sulfhydryl oxidase ALR; P55789; purified ALR, DTT oxidation, H2O2 HRP-luminol luminescence; inhibition, % (concentration not given with the values); hit rate 3.8% among 290,000;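 active = mean and each replicate at 75% or more; inconclusive = only one of the two met; inactive = neither met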;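 note: stock transfer was 7.5 nL into about 7.5 µL; 0% = neutral wells and 100% = wells with inactivated enzyme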
Target sequence (P55789 whole entry, looked up): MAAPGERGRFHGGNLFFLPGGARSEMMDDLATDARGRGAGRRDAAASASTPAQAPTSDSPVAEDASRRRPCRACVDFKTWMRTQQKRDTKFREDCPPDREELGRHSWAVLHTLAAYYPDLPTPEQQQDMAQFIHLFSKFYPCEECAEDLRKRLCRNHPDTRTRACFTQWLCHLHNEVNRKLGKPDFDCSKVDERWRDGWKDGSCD
rRNA inh HTS – inhibits bacterial ribosomal RNA function over humanized ribosomes. GFP signal change (wild-type ribosome), % (no concentration beside the values). hit rate 1.6% among 350,000. E. coli WT GFP vs humanized-ribosome RFP mutants, fluorescence, 24 h; active compounds read low; DMSO median 0, no signal -100;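 active = significant combined selectivity score with lowered wild-type GFP, culture density cut under 30%, mutant RFP and density less affected; inactive = any of these conditions unmet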; note: one replicate is shown; some compounds called inactive have numbers as strong as hits
T cruzi repl – T. cruzi replication inhibition | T. cruzi beta-gal in NIH3T3, luminescence, 90 h | inhibition, % (test concentration not listed) | hit rate 1.4% among 300,000 | AID 1885;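 active = mean inhibition across valid replicates above about 55%, limit read from the data; inconclusive = mean below that limit but half or more replicates reach it; inactive = mean below it, under half of replicates reach it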;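 note: signal also drops with host cell toxicity which is not excluded here; 0% = plate median of DMSO wells and 100% = zero luminescence signal; higher percent means less beta-gal luminescence so fewer parasites; stock transfer was 50 nL into about 50 µL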
LANA-H2A inh – blocks KSHV LANA binding to histone H2A/H2B. Q9QR71. cell-free LANA-H2A/H2B peptide, fluorescence polarization. inhibition, % (no concentration beside the values). hit rate 0.6% among 320,000; in the data active = inhibition mostly above about 10%, no sharp cut-off; inactive = mostly below about 6.7%;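 note: stock transfer was 7.5 nL into about 10 µL; 0% = median of vehicle wells and 100% = median of positive control wells; one replicate is shown; the record names a cut of 25% in any replicate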
Calb FLC – affects C. albicans growth with fluconazole; C. albicans CaCi-2 (fluconazole-resistant clinical isolate) + fluconazole, Alamar Blue growth, 48 h; growth inhibition, % (no concentration beside the values); hit rate 0.57% among 300,000;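 active = most replicates above 75%; inconclusive = exactly half above 75%; inactive = most below 75%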;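 note: all wells also contain fluconazole at 8 µg/ml as a sub-toxic cotreatment; 0% = median of DMSO wells and 100% = median of geldanamycin control wells; wells of about 8 µL received 7.5 nL stock; the first replicate is given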
Bfl-1 A1 inh – inhibitors of the anti-apoptotic protein A1, read as caspase activation. hit rate 0.066% among 330,000. caspase activation, % (test concentration not listed). MEF A1-2A-BIM cells, Caspase-Glo 3/7 luminescence, 3 h; percent of clofoctol response, vehicle zero. AID 2462;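 active = over half of replicate activation scores above 10%, or exactly half above 10 with the replicate mean above 10; inconclusive = replicate mean below 10 yet half the replicates above 10; inactive = over half of replicates below 10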;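 note: wells of about 30 µL received 50 nL stock; many hits fall short of the cut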
Beta2AR agonist – activates human beta-2 adrenergic receptor causing internalization; Am2.2-beta2AR cells, FAP receptor internalization, flow cytometry; reference of the scale not given here; response, % (concentration not given with the values); hit rate 0.43% among 340,000; AID 504454;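 active = response above a set limit, near 3 SD of response in nonfluorescent compounds, cut at about 42% in these data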;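 note: stock transfer was 100 nL into about 11 µL; a reference agonist was the positive control; negative values mostly stem from fluorescent compounds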
Target sequence (P07550 whole entry, looked up): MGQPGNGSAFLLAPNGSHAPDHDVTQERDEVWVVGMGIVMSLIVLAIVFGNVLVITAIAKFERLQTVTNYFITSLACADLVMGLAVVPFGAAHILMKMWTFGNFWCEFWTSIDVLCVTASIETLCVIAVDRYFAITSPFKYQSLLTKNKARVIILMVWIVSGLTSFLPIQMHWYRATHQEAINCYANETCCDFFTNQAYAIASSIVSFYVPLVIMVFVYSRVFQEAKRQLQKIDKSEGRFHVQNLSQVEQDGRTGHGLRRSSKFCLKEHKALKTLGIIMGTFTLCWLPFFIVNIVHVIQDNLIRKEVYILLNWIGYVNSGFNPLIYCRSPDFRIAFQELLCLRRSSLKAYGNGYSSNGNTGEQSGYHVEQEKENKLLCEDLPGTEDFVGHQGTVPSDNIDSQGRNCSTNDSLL
rRNA inh HTS OD600 – also measured in rRNA inh HTS; calls as there; OD600 change, %; measured here: OD600 growth;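 optical density of the mix in the first replicate; 0 = DMSO median and -100 = no signal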
rRNA inh HTS RFP – also measured in rRNA inh HTS; calls as there; RFP signal change, %; measured here: RFP humanized mutant strains;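 first replicate; 0 = DMSO median and -100 = no signal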
Active calls of the source: *; ? = inconclusive; nt = not tested or not shown. Only part of the results is shown; rates above refer to the full screens.

Below each compound: Beta cell apopt, ALR H2O2 inh, rRNA inh HTS, rRNA inh HTS OD600, rRNA inh HTS RFP, T cruzi repl, LANA-H2A inh, Calb FLC, Bfl-1 A1 inh, Beta2AR agonist
- CCOC(=O)c1c(N)n(CCCOC(=O)c2ccco2)c2nc3ccccc3nc12
 : 64, -27, nt, nt, nt, 1, -0.8, -6, -1.8, 3
- CSc1ccccc1C(=O)C1CCCN(Cc2ccn[nH]2)C1 (configuration not stated)
 : -1, -5, nt, nt, nt, -4, 1.1, -24, 0.1, -1
- O=C(N/N=C/c1c(O)n(-c2ccccc2)c(=S)[nH]c1=O)c1ccccc1
 : -1, nt, 9, 15, 9.1, -34, 6.0, 13, -0.1, -11
- Cc1nn(-c2ccccc2)c(Cl)c1C1C(C#N)=C(N)Oc2c1c(=O)oc1ccccc21 (configuration not stated)
 : -1, -11, nt, nt, nt, 5, -2.7, -5, -0.7, 2
- CCC1(c2ccc(-c3ccccc3)cc2)C(=O)NC(=O)NC1=O
 : nt, nt, -25, -32, -4.6, 22, 11, 10, 0.3, 16
- C[C@]12CCC3C(CC[C@H]4C[C@@H](O)CC[C@]34C)[C@H]1CC[C@H]2O (some centres not stated)
 : -8, 48, -20*, -18*, 1.4*, nt, 6.1, nt, -1.1, 1
- COc1ccccc1OCC(=O)Nc1ccc(Cl)cc1C(=O)c1ccccc1
 : 3, -7, nt, nt, nt, 41, 0.2, -5, 0.5, -10
- Cc1nn(CCC#N)c2c1P(=S)(N1CCCC1)OC(c1ccc(F)cc1)=N2 (configuration not stated)
 : -11, 13, nt, nt, nt, -5, -6.1, 33, 0.0, 2
- COC(=O)C1=C(c2ccc(C(C)=O)cc2)C[C@@H]2CC[C@H]1N2C(=O)NC1Cc2ccccc2C1
 : -7, -6, nt, nt, nt, nt, -4.6, nt, 0.5, -2
- CCOC(=O)C(O)(c1ccc(NC(=O)c2ccco2)c(OC)c1)C(F)(F)F (configuration not stated)
 : 2, 9, nt, nt, nt, 9, 16, -1, 0.0, 7
- CCOCCCNC(=O)C1c2cc(OC)c(OC)cc2C(=O)N2CCCCC12 (configuration not stated)
 : -1, 2, 7, 9, -3.4, 0, 3.2, -4, -0.1, 7
- CCn1cc(C(=O)N2CCCCC2)c2ccccc21
 : 12, nt, 0, -3, 0.4, -4, -4.9, ?, 0.0, 3
- CCNC(=O)NC(=O)C(C)OC(=O)c1c(C)nn(Cc2ccccc2)c1Cl (configuration not stated)
 : 1, 3, 5, 7, -5.2, 19, 2.9, -24, 0.3, -3
- Cn1c(=O)c2c(nc(N/N=C/c3c(O)n(-c4ccccc4)c(=S)[nH]c3=O)n2C)n(C)c1=O
 : -3, 5, nt, nt, nt, -16, -0.3, ?, -0.2, -4
- C[C@]12CCC3C(CCC4=C/C(=N/OCC(=O)NC(CCC(N)=O)C(=O)O)CC[C@@]43C)C1CCC2O (some centres not stated)
 : 0, -1, 8, 10, -0.6, -2, -4.2, -1, 0.0, 3
- CCCCC(CC)COCCCN=Cc1c(O)[nH]c(=S)[nH]c1=O (configuration not stated)
 : 0, 12, -10, -5, 2.8, -3, -3.6, 0, 0.0, -9
- COc1cc2c(cc1OC)C13CCN4CC5=CCOC6CC(=O)N2C1C6C5CC43 (configuration not stated) (tested in a mixture with another compound)
 : 2, 2, 3, 4, -1.8, -16, -8.3, -5, 0.5, 11
- CN1CC[C@@]2(C)c3cc(O)ccc3N(C)C2O1 (some centres not stated)
 : -3, 39, nt, nt, nt, -9, 0.9, 34, 1.2, -9
- Cc1cc(/C=C2/C(=O)NC(=O)N(Cc3ccco3)C2=O)c(C)n1-c1ccccc1O
 : -9, 81*, 11, 1, -1.0, -1, -2.3, 14, -0.2, 14
- CCN1C(=O)CC(c2cccnc2)=Nc2ccccc21
 : -2, -14, 4, 11, 1.3, -10, 2.2, -3, 0.1, -14
- CC(=O)c1c(O)n(-c2cccc(Cl)c2)c(=O)[nH]c1=O (tested in a mixture with another compound)
 : -5, 2, 6, 9, -2.3, -5, -1.9, 14, 1.3, 2
- CCN1CCN(c2cc(=O)n3ccccc3n2)CC1
 : -2, -1, 8, 11, 1.5, 7, -1.5, -5, -0.4, -2
- COC(=O)C1=C(c2cc3ccccc3s2)C[C@@H]2CC[C@H]1N2C(=O)N1CCC(C)CC1
 : -3, 0, -7, -7, 4.7, -12, -0.1, 15, -0.1, 0
- CCCCCP(=O)(O)c1ccccc1
 : 1, -13, nt, nt, nt, -11, -2.4, -8, 2.2, 2
- CNC(=O)OCCc1nccn1C
 : -6, 0, nt, nt, nt, -16, -0.7, -16, 0.0, -2
- Cn1c(O)c(C(=Nc2ccccc2)SCc2ccc(Cl)cc2)c(=O)n(C)c1=O
 : -4, 98*, -18, -35, 3.4, -6, -3.1, -18, -0.6, -13
- COc1cc(C(c2c(O)c3ccccc3oc2=O)c2c(C)n(C)n(-c3ccccc3)c2=O)ccc1O (configuration not stated)
 : -3, 14, nt, nt, nt, -33, 0.8, 2, 0.0, -7
- O=C1CC(=O)N(c2ccccc2F)C(=O)N1
 : -4, 35, 15, 6, 5.6, -13, 9.4, 1, -0.5, -5
- O=c1c2ccccc2nc(-c2ccc(Cl)cc2Cl)n1-c1nccs1
 : -2, -1, nt, nt, nt, 17, 0.0, 18, -0.1, -8
- CCCc1nnc(NC(=O)CCC(=O)N2CCN(CCOC(c3ccccc3)c3ccccc3)CC2)s1
 : 3, -54, nt, nt, nt, 19, -4.4, 11, 0.2, -14

Entries of single compounds, looked up by structure. Order of values: Beta cell apopt | ALR H2O2 inh | rRNA inh HTS | rRNA inh HTS OD600 | rRNA inh HTS RFP | T cruzi repl | LANA-H2A inh | Calb FLC | Bfl-1 A1 inh | Beta2AR agonist
CNC(=O)OCCc1nccn1C is listed with -6 | 0 | nt | nt | nt | -16 | -0.7 | -16 | 0.0 | -2
CCCc1nnc(NC(=O)CCC(=O)N2CCN(CCOC(c3ccccc3)c3ccccc3)CC2)s1 is listed with 3 | -54 | nt | nt | nt | 19 | -4.4 | 11 | 0.2 | -14
Cc1cc(/C=C2/C(=O)NC(=O)N(Cc3ccco3)C2=O)c(C)n1-c1ccccc1O is listed with -9 | 81* | 11 | 1 | -1.0 | -1 | -2.3 | 14 | -0.2 | 14
Cn1c(O)c(C(=Nc2ccccc2)SCc2ccc(Cl)cc2)c(=O)n(C)c1=O is listed with -4 | 98* | -18 | -35 | 3.4 | -6 | -3.1 | -18 | -0.6 | -13

Continued:
Below each compound: Beta cell apopt, ALR H2O2 inh, rRNA inh HTS, rRNA inh HTS OD600, rRNA inh HTS RFP, T cruzi repl, LANA-H2A inh, Calb FLC, Bfl-1 A1 inh, Beta2AR agonist
- Cc1ccc(S(=O)(=O)NC(CC(=O)N2CCC3(CC2)OCCO3)c2ccco2)cc1 (configuration not stated)
 : 3, -5, nt, nt, nt, -2, 0.6, -2, 0.4, 0
- COC(=O)C1=C(c2cc3ccccc3s2)C[C@@H]2CC[C@H]1N2C(=O)NCCS(C)=O (some centres not stated)
 : -6, nt, -8, -10, -1.1, 9, -3.3, -6, 0.1, 0
- CCC1=Nc2cc(C(=O)N3CCC4(CC3)OCCO4)ccc2Sc2ccc(C)cc21
 : -2, -11, -2, -13, 2.4, 22, -1.8, 3, 1.2, -1
- COc1ccc(/C=C2/C(=O)NC(=O)N(Cc3ccco3)C2=O)cc1
 : -5, 6, nt, nt, nt, 1, 5.8, 19, 0.7, nt
- O=C(NCc1cccnc1)NC1CCCCC1
 : 1, -2, nt, nt, nt, -19, 5.0, 0, 0.9, -8
- CCN1CCN(C(=O)COc2ccc3oc4c(c3c2)CCCC4)CC1
 : -4, -10, nt, nt, nt, nt, -0.6, nt, 1.2, -20
- C[C@@H]1CC2C3CC=C4C[C@@H](O)CC[C@]4(C)C3CC[C@]2(C)[C@H]1O (some centres not stated)
 : 1, -2, -10, -17, 3.9, nt, -4.8, nt, 1.0, 0
- COC(=O)C1=C(c2cc3ccccc3o2)C[C@@H]2CC[C@H]1N2C(=O)N1CCCC1
 : -7, nt, nt, nt, nt, 21, -0.7, 18, 0.3, -3
- CC1(C)C(=O)CC[C@@]2(C)C1=CCC1C2CC[C@]2(C)C(=O)CCC12 (some centres not stated)
 : 17, -4, nt, nt, nt, nt, 0.3, nt, 0.0, -2
- CNC(=O)Oc1ccc2c(c1)C(=O)c1ccccc1CO2
 : -10, -10, nt, nt, nt, -4, 0.3, 3, -1.3, -35
- COC(=O)C1=C(c2ccc(F)cc2F)C[C@@H]2CC[C@H]1N2C(=O)NC1Cc2ccccc2C1
 : -16, -4, -5, -15, -7.0, nt, -0.5, nt, -0.5, -4
- COc1cccc(-c2sc3ccccc3c2-c2ccc(OCCN3CCOCC3)cc2)c1
 : -10, -1, 11, 7, -7.7, nt, 2.5, nt, 3.0, 6
- Cc1cc(N(CCCl)CCCl)ccc1/C=N/N=C(\N)c1cnccn1
 : 6, 21, -7, -2, 2.9, 4, 1.1, -2, 0.0, 5
- CCCc1nnc(NC(=O)CCC(=O)N2CCC3(CC2)OCCO3)s1
 : 1, -6, 13, 1, -1.0, 3, 1.3, -27, -0.6, -5
- N#CCCn1cc(C(=O)Nc2ccc([N+](=O)[O-])cc2)c(-c2ccc3c(c2)OCCO3)n1
 : 1, -6, 7, 3, -1.3, -1, -1.7, 13, 0.0, -5
- COc1ccc(C(O)P(=O)(Oc2ccccc2)Oc2ccccc2)cc1 (configuration not stated)
 : -4, 57, -2, 6, 0.2, -15, 4.4, -1, 0.2, -6
- CN1C(=O)NC(=O)/C(=C/c2ccc([N+](=O)[O-])o2)C1=O
 : 4, -70, 10, 1, 15, -3, 4.1, 2, 1.1, 3
- COc1ccc(CCNCc2ccc(Br)cc2)cc1OC
 : -5, -21, 4, 2, -1.5, 35, 1.9, 1, 0.6, -5
- CCCCC1C(=O)NC(=S)NC1=O
 : -5, 21, nt, nt, nt, -30, -2.0, -4, 0.1, nt
- Cc1cccc(OCCn2cccc2/C=C2/C(=O)NC(=O)N(Cc3ccco3)C2=O)c1
 : -5, 14, 0, 0, 11, -5, -0.2, -4, -0.9, 14
- CNC(C(=O)c1ccccc1)C(OC(C)C)c1ccc(Cl)cc1 (configuration not stated)
 : -3, -10, nt, nt, nt, -4, -0.3, 12, -0.4, 3
